Compound activity: PubChem BioAssay, National Center for Advancing Translational Sciences (NCATS)
VDR inh: vitamin D3 receptor (human) inhibition | hit rate 0.93% among 400,000 | Potency, µM, for the others: max response, negative = inhibition, most hits filed as inhibitors | P11473 | VDR-SRC2-3 peptide fluorescence polarization, 2 h; active = well fitted inhibition curve with a large enough effect; inconclusive = small, poorly fitted or top-dose-only effect, or another doubt; inactive = no such curve, though single readings can be large or run the other way; note: series mostly up to about 120 µM
Target sequence (P11473 whole entry, looked up): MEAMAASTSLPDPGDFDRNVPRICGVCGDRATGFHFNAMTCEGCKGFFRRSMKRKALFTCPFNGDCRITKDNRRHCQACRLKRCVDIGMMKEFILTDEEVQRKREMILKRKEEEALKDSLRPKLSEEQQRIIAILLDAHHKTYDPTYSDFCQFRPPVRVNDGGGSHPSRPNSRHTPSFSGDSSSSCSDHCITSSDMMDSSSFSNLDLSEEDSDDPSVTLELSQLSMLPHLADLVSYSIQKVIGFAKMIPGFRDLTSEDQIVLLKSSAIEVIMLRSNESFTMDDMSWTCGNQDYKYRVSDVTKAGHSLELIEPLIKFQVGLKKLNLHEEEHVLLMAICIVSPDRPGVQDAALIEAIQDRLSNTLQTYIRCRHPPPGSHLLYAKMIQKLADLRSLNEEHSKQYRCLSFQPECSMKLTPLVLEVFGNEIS
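Signal is fluorescence polarization, reporting how far test compounds block the interaction of VDR with the SRC2-3 coregulator peptide after a 2 h room-temperature incubation.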
Active calls of the source: *; ? = inconclusive; & = joins results of further samples. % is set by controls: 0 for no effect and ±100 for the full control effect; potency is the fitted concentration of half-maximal effect. The list is partial; the hit share may differ from the screen's.

SMILES | VDR inh
OC(CNCC(c1ccco1)N1CCCCC1)c1ccccc1 (stereo not given) | 13.0%
O=C(O)C1CCN(C(=O)c2ccco2)CC1 | 8.2%
CSc1ncccc1C(=O)OCC(=O)NC1CCCc2ccccc21 (stereo not given) | -0.6%
COc1ccccc1NC(c1ccc(Cl)cc1)c1nnc(-c2cccc(F)c2)o1 (stereo not given) | -10.8%
CNCCCCCCCCSc1nc(C(C)C)ccc1C(=O)c1cccs1 | ?
NC(=O)c1cc([N+](=O)[O-])ccc1NCC1CCCCC1 | -1.5%
CC1(C)CCN2CCC(C)(C)c3c(O)ccc1c32 | ?
CCc1ccc(C2=CC(c3cccc(OC)c3OC)n3c(nc4ccccc43)N2)cc1 (stereo not given) | 3.2%
Cc1cccc(CCNC(=O)c2sc3nc4n(c(=O)c3c2C)CCCC4)c1 | -3.1%
Cc1cnc(CN(C)C(=O)C2CCC(=O)N(CCc3ccccc3)C2)[nH]1 (stereo not given) | 18.7%
COc1ccc(CN2CCN(C(=O)CCC(=O)Nc3nnc(C4CCCCC4)s3)CC2)cc1F | -18.2%
COc1ccccc1NC(=O)c1ccc(-c2nn(C)c(=O)c3ccccc23)cc1 | 5.2%
Cc1ccccc1NC(=O)CCc1c(C)nn(-c2ccc(N3CCCCC3)nn2)c1C | -2.0%&9.3%
COc1ccc(CNC(=O)c2ccc3c(c2)N(Cc2ccccc2)CCS3)cc1 | -1.0%
COC(=O)c1ccc(C(C(=O)NCc2ccccc2)N(Cc2cccs2)C(=O)c2cnccn2)cc1 (stereo not given) | 18.8%
Cc1cccc(NC(=O)C2CCCN(S(=O)(=O)c3cccc4nonc34)C2)c1 (stereo not given) | 4.1%&-4.0%
CC(C)[C@@H](CC(=O)N[C@@H]1CCNC[C@H]1C(=O)N[C@H](CC(=O)N[C@@H](CCC(=O)O)CC(=O)O)Cc1c[nH]c2ccccc12)NC(=O)C[C@H](CO)NC(=O)[C@@H]1CCCC[C@H]1N | 4.1%
CCCCNC(=O)C(=O)N/N=C/c1ccc(OCc2ccccc2)cc1 | -35.9%
COc1ccc(C(=O)NCCCNC(=O)c2cccnc2)cc1OC | 5.4%
CN1CCN(c2ncnc3ccc(-c4cccc(C#N)c4)cc23)CC1 | 3.6%
O=C1c2ccccc2-c2nccnc21 | 4.3%
O=C(Cn1ccn(-c2cccc(Cl)c2)c(=O)c1=O)c1ccc(F)cc1 | 5.1%
N#CC(C#N)=C(N)CSc1cccc[n+]1[O-] | 17.9%
CC(C)c1ccc(NC(=O)c2ccc(NS(C)(=O)=O)cc2)cc1 | 8.2%
CC1=C(C(=O)OCC2CCCO2)C(c2ccc(C)cc2)C2=C(CCCC2=O)N1 (stereo not given) | -15.0%

Some of the entries above in a different format.
> Cc1ccccc1NC(=O)CCc1c(C)nn(-c2ccc(N3CCCCC3)nn2)c1C
  VDR inh: -2.0%&9.3%

> COc1ccc(CNC(=O)c2ccc3c(c2)N(Cc2ccccc2)CCS3)cc1
  VDR inh: -1.0%

> COC(=O)c1ccc(C(C(=O)NCc2ccccc2)N(Cc2cccs2)C(=O)c2cnccn2)cc1 (stereo not given)
  VDR inh: 18.8%

> Cc1cccc(NC(=O)C2CCCN(S(=O)(=O)c3cccc4nonc34)C2)c1 (stereo not given)
  VDR inh: 4.1%&-4.0%

Continued.
SMILES | VDR inh
COC(=O)c1ccccc1NC(=S)NC(=O)COc1ccc(C(C)C)cc1 | 7.2%
O=C(NCCSc1ccccc1)c1ccccc1F | 8.2%
O=S(=O)(NCc1cccs1)c1ccc(Br)cc1 | -12.3%
COc1ccc(CCNC(=S)Nc2ccc(OC)cc2)cc1 | -23.3%
Cc1ccc2nc(NCc3ccccc3Cl)c3nnnn3c2c1 | -7.7%
COc1cccc(CNC(=O)CCc2nc(-c3ccc(C)cc3)no2)c1 | -0.1%
CCOc1ccccc1NC(=O)Cn1c(=O)n(-c2ccccc2)c(=O)c2c1c1cc(C)ccc1n2C | 11.3%
COC(=O)c1scc(-c2ccc(C)cc2)c1S(=O)(=O)N1CCN(c2cccc(Cl)c2)CC1 | 11.9%
Cc1cc(C(=O)N/N=C/c2cccc([N+](=O)[O-])c2)c(C)o1 | -12.4%
C/C(=N\NC(=O)c1nnn(-c2nonc2N)c1-c1ccccc1)c1ccco1 | 2.3%
Cc1cc(C)n2cc(CSc3nc4ccccc4s3)nc2n1 | -13.8%
COc1ccc(NC(=O)CN(C)C(=O)c2c(-c3c(F)cccc3Cl)noc2C)cc1 | 4.9%
Cc1ccc(NC(=O)Cc2ccc3c(c2)CCCC3)cc1C | -6.3%
O=C(Nn1cnc2ccccc2c1=O)c1ccc([N+](=O)[O-])cc1 | -18.8%
CCc1ccccc1N(CC(=O)NC(C)(C)CC)C(=O)CCC(=O)Nc1nccs1 | -16.4%
Cc1cc(C)n2nc(C(=O)Nc3ccc4c(c3)OCCO4)nc2n1 | 0.7%
C=CCNC(=S)NNC(=O)c1ccncc1 | -3.3%
Cc1c(C(=O)N2CCC(C(N)=O)CC2)oc2ccc(Br)cc12 | 1.3%
COc1ccccc1CN1C(=O)CN(C2CCCCCC2)C(=O)C1c1ccc(F)cc1 (stereo not given) | ?
OCC(O)C(O)CC1SCCS1 (stereo not given) | -11.2%
Cc1cccc(C)c1NC(=O)CN(C)C(=O)c1ccc(-c2cccc(C(F)(F)F)c2)o1 | 14.6%
CC1CCCCN1C(=O)c1ccccc1OC1CCN(S(C)(=O)=O)CC1 (stereo not given) | 3.7%
COC/C=C/C1=CC2=CC(=O)C(C)(OC(=O)c3cccs3)C(=O)C2=CO1 (stereo not given) | -0.3%
O=C(c1cc(F)ccc1F)C1CCCN(C(=O)CCc2cnccn2)C1 (stereo not given) | -6.6%
Cc1csc(NC(=O)Nc2cccc(Cl)c2)n1 | 13.9%
SMILES | VDR inh
CCC(C)Sc1nc2ccccc2c(=O)[nH]1 (stereo not given) | 15.5%
O=S(=O)(NCC1CCCO1)c1ccc(Br)cc1 (stereo not given) | -5.3%
COc1cccc(NC(=O)CN(C)C(=O)CNC(=O)c2ccc3ccccc3c2)c1 | -3.5%
COc1ccc(OC)c(-c2nc(CN3CCN(C(=O)c4ccco4)CC3)c(C)o2)c1 | -12.1%
CCOc1ccc(NC(=O)CSC2=Nc3ccccc3C3=NC(CC(=O)NCc4cccs4)C(=O)N23)cc1 (stereo not given) | -5.3%
COC(=O)c1ccc(/C=C/C(=O)OCC(=O)Nc2sccc2C(N)=O)cc1 | 2.2%
COc1cccc(S(=O)(=O)NCc2ccc(C(=O)N3CCN(c4ccccc4)CC3)cc2)c1 | -5.3%
C[C@]12CC[C@H](O)CC1=C[C@H](O)C1C2CC[C@@]2(C)C1CC[C@@]2(O)C#Cc1ccc(CN)cc1 (stereo not given in full) | 19.9%
COc1ccc(-c2cn3cccc(C)c3n2)cc1Br | -11.0%
O=C(Cn1c(=O)sc2ccccc21)OC(CCl)CCl | 7.2%
COc1ccc(NC(=O)CCCS(=O)(=O)c2nc(-c3ccccc3OC)cc(C(F)(F)F)n2)c(OC)c1 | ?
COc1ccc(NC(=O)C(=O)NCCN2CCN(C(=O)c3ccc(C(C)(C)C)cc3)CC2)cc1 | 1.4%
Cc1ccc2c(Sc3ccccc3)c(C(=O)NCc3ccccc3F)[nH]c2c1 | 18.0%
CCOc1ccc(NC(=S)N(CCc2c(C)[nH]c3ccccc23)Cc2cccnc2)cc1 | -1.1%
Cc1ccc(CNC(=O)CN(C)S(=O)(=O)c2ccc3c(c2)n(C)c(=O)c(=O)n3C)cc1 | -4.1%
NS(=O)(=O)c1ccc(CCNC(=O)c2ccc(=O)[nH]c2)cc1 | -16.3%
CCCCN(C(C)=O)c1c(N)n(CCC)c(=O)n(CC(=O)Nc2cc(Cl)cc(Cl)c2)c1=O | 10.1%
CN(C(=O)c1cccc(NC(=O)Cc2cccc(NC(=O)C3CCN(C(=O)C4CCC4)CC3)c2)c1)C1CC1 | -20.4%
CCOC(=O)[C@@H]1[C@H]2COc3cc(OC)ccc3[C@@H]2N2C(=O)N(c3ccc(F)cc3)C(=O)[C@]12C | 6.4%
COc1ccc(OCC(=O)NNC(=O)c2cccnc2)cc1 | -11.8%
Cc1cc(=O)n(C)c2ccc(S(=O)(=O)N3CCOCC3)cc12 | 9.3%
CCOc1ccc(NC(=O)Nc2ccc(Br)cn2)cc1 | -1.7%
Cn1cc(-c2cc3n(n2)CCC(=O)N3CCCC(=O)NCc2ccc(Cl)cc2)c2ccccc21 | -2.3%
COC(=O)c1c(NC(=O)CSc2nccn2C)sc(C)c1C | -7.7%
CC1CCC(=NO)C(=NO)C1 (stereo not given) | 12.8%
SMILES | VDR inh
Cc1nc2cnc(N3CCOCC3)nc2n(C2CC2)c1=O | -5.9%
Cc1onc(-c2ccccc2Cl)c1C(=O)N1CCN(C)CC1 | 0.2%
COc1ccc(OC)c(CNc2ccc([N+](=O)[O-])cc2C)c1 | 12.3%
O=C(CN(CC1CCCO1)C(=O)CCC(=O)Nc1nccs1)NCc1ccc2c(c1)OCO2 (stereo not given) | -8.1%
COc1ccc(C(=O)CN2CCN(S(=O)(=O)c3ccc(C(C)C)cc3)CC2)cc1 | -0.3%
Cc1ccc(Nc2c(-c3ccccc3O)nc3ncccn23)cc1 | 9.5%
COc1ccc(/C=N/N2C(=N)SCC2=O)cc1 | -1.2%
Cn1ccnc1C(=O)c1cc(SCC(=O)NCc2ccccc2)nc2ccccc12 | -6.5%
COc1cc(N)c(Cl)cc1C(=O)OCC(=O)c1ccc2c(c1)NC(=O)CO2 | -8.0%
CC(C)c1ccc(NC2CCCN(C(=O)CCN3Cc4ccccc4C3=O)C2)cc1 (stereo not given) | 8.7%
C=CCc1ccccc1Oc1cc(OC)nc(N)n1 | -9.5%
Cc1ccc(C(=O)C2=C(O)C(=O)N(Cc3cccnc3)C2c2cccc([N+](=O)[O-])c2)o1 (stereo not given) | -18.5%
CS(=O)(=O)c1ccc(Cl)c(C(=O)OCC(=O)NC2CCCCCCC2)c1 | 7.5%
Cc1cc(C)c2sc(N(Cc3cccnc3)C(=O)CCS(=O)(=O)c3ccccc3)nc2c1 | -0.9%
CCCCNC(=O)CS(=O)Cc1nc(-c2cccs2)oc1C (stereo not given) | -24.1%
CCC(C)N1C(=O)CN(C2CCCCCC2)C(=O)C1c1ccccc1F (stereo not given) | 7.4%
Cc1nnc(SCC(=O)NC2CCCCC2)[nH]c1=O | 0.0%
Cc1ccc(OCC(=O)N2CCN(C(=O)c3ccc([N+](=O)[O-])cc3)CC2)cc1 | -12.8%
O=C(COc1ccc(Br)cc1CNC1CCCCC1)NCCc1ccccc1 | -22.4%
CCNC(=O)OCCC12CC3CC(CC(C3)C1)C2 | -7.2%
CN(Cc1ccccc1)Cc1nc2c(c(=O)n(C)c(=O)n2C)n1CCCc1ccccc1 | -21.9%
COc1ccc2cc(C(=O)N3CCN(c4cccc(C)c4C)CC3)[nH]c2c1 | 9.2%
COc1ccnc(Oc2ccccc2)c1C(=O)N/C=N/OCc1ccccc1F | 4.5%
CC(O)CSc1nc2c(c(=O)[nH]c(=O)n2C)n1Cc1ccccc1 (stereo not given) | -15.9%
COC(=O)c1cccc(C23CC4(C2)[C@H](CN(Cc2ccc(C(F)(F)F)cc2)[C@@H]4c2ccccc2)C3c2ccccc2)c1 (stereo not given in full) | -23.8%
SMILES | VDR inh
COc1ccc(Cl)cc1NC(=O)CN(C)C(=O)c1ccc(COc2ccccc2)cc1 | -3.4%
CCc1cccc(C)c1Nc1c(-c2cccc(O)c2)nc2sccn12 | -8.4%
Cc1ccccc1OCCn1c(=O)oc2ccccc21 | 16.0%
O=c1nc2c(-c3cccc(Br)c3)n[nH]n2c2ccccc12 | -4.5%
CCc1ccc(-n2nc3cc(C)c(N)cc3n2)cc1 | ?
O=C(O)CSCC(=O)NCc1ccc(Cl)cc1Cl | 1.4%
Cc1ccnc(SCC(=O)c2cccc([N+](=O)[O-])c2)n1 | -19.3%
COC(=O)c1cn(NC(=O)Cn2nc([N+](=O)[O-])c(Cl)c2C)c(=O)c2ccccc12 | 4.2%
C=CCN1C(=O)C(Cc2ccc(F)cc2)S/C1=N/N=C/c1cccs1 (stereo not given) | -8.5%
O=C(NCCc1nnc2ccc(NCc3ccccc3Cl)nn12)c1ccccc1 | -1.2%
CC(C)(C)c1ccc(OC(=O)c2ccc3nsnc3c2)cc1 | 2.0%
CCCn1c(=O)n(-c2ccccc2Cl)c(=O)c2sc3ccccc3c21 | -16.0%
Cc1cccc(OCC(=O)Nc2ccc(S(=O)(=O)Nc3ccccn3)cc2)c1 | 2.1%
CCn1c(SCc2c(F)cccc2Cl)nnc1-c1ccco1 | -14.2%
O=C1N=c2ccccc2=C1c1sc(Nc2cccc(O)c2)nc1O | -15.4%
CCOC(=O)CSc1cc(CS(=O)c2ccc(Cl)cc2)nc(-c2ccccc2)n1 (stereo not given) | -0.8%
Cn1c(SCC(=O)O)nc2sc3c(c2c1=O)CCC3 | -3.0%
Cc1ccc(/C=N/Nc2ccc(C(=O)O)cc2)s1 | 1.5%

5 entries from above, in markdown.
| canonical_smiles | VDR inh |
| --- | --- |
| CC(C)(C)c1ccc(OC(=O)c2ccc3nsnc3c2)cc1 | 2.0% |
| CCCn1c(=O)n(-c2ccccc2Cl)c(=O)c2sc3ccccc3c21 | -16.0% |
| Cc1cccc(OCC(=O)Nc2ccc(S(=O)(=O)Nc3ccccn3)cc2)c1 | 2.1% |
| CCn1c(SCc2c(F)cccc2Cl)nnc1-c1ccco1 | -14.2% |
| O=C1N=c2ccccc2=C1c1sc(Nc2cccc(O)c2)nc1O | -15.4% |

Looked up above.
CCOC(=O)CSc1cc(CS(=O)c2ccc(Cl)cc2)nc(-c2ccccc2)n1 (stereo not given) in VDR inh: -0.8%
C=CCN1C(=O)C(Cc2ccc(F)cc2)S/C1=N/N=C/c1cccs1 (stereo not given) in VDR inh: -8.5%
Cn1c(SCC(=O)O)nc2sc3c(c2c1=O)CCC3 in VDR inh: -3.0%
